rRNA inh HTS = inhibits bacterial ribosomal RNA function over humanized ribosomes; 1.6% of 350,000 active; GFP signal change (wild-type ribosome), % (concentration not given with the values); E. coli WT GFP vs humanized-ribosome RFP mutants, fluorescence, 24 h; hits give low values; DMSO median 0, no signal -100;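 active means significant combined selectivity score with lowered wild-type GFP, culture density cut under 30%, mutant RFP and density less affected; inactive means any of these conditions unmet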; further: one replicate is shown; some compounds called inactive have numbers as strong as hits
AF4-AF9 inh = MLL-AF4/AF9 protein interaction inhibition | AlphaScreen, biotin-AF4 peptide binding to FLAG-AF9 | AID 651704 | P42568 | 0.47% of 350,000 active | inhibition, % at 10 µM;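 active means every replicate reaching a set inhibition limit, whatever the replicate mean, cut at about 25% in these data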;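 further: 0% = plate neutral control median and 100% = total signal loss; the record names both 10 and 1 µM as test concentration; the first replicate is given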
Target sequence (P42568 whole entry, looked up): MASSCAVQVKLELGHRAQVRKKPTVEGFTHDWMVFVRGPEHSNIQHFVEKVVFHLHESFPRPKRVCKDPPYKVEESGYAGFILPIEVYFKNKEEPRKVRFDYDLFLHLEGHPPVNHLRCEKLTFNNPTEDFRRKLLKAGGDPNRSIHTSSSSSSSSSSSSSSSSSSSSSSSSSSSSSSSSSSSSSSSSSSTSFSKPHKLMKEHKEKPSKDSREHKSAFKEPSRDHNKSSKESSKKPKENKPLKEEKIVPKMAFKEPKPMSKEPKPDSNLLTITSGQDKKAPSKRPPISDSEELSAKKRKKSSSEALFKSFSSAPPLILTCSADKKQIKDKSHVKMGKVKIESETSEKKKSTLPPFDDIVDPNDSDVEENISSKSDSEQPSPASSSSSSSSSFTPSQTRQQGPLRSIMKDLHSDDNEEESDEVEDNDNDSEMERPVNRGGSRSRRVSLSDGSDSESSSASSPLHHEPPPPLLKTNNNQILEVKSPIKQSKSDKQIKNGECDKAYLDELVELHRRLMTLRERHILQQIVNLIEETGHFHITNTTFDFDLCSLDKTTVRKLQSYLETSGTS
rRNA inh HTS OD600 = also measured in rRNA inh HTS; calls as there; OD600 change, %; measured here: OD600 growth;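 optical density of the mix in the first replicate; 0 = DMSO median and -100 = no signal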
rRNA inh HTS RFP = further read-out of rRNA inh HTS, marked with its call; RFP signal change, %; measured here: RFP humanized mutant strains;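 first replicate; 0 = DMSO median and -100 = no signal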
Active calls of the source: *; & = joins results of further samples.

#	rRNA inh HTS RFP	AF4-AF9 inh	rRNA inh HTS	rRNA inh HTS OD600	structure
1	3.3	-1.2	0	-5	C[C@H]1CN([C@@H](C)CO)C(=O)Cc2cc(NC(=O)Nc3cccc4ccccc34)ccc2O[C@H]1CN(C)Cc1ccc(C(F)(F)F)cc1
2	0.6	6.3	-1	-3	COc1ccc(NC(=O)Nc2ccc3c(c2)C(=O)N([C@H](C)CO)C[C@@H](C)[C@@H](CN(C)Cc2ccccc2)O3)cc1
3	0.7	6.5	13	10	CCOC(=O)N1C(=O)NC(=O)C1c1ccc(OC)cc1 (configuration not stated)
4	-1.3	3.9	-1	1	C[C@@H]1CCCCO[C@@H](CN(C)Cc2ccc(C(=O)Nc3ccccc3N)cc2)[C@@H](C)CN([C@H](C)CO)C(=O)c2cc(NC(=O)c3ccncc3)ccc2O1
5	-2.7	-0.5	-4	-5	C[C@H]1CN([C@@H](C)CO)C(=O)c2cccc(NS(=O)(=O)c3ccccc3)c2O[C@@H]1CN(C)S(=O)(=O)c1ccccc1
6	1.0	0.0	1	-6	O=C(Nc1ccc2c(c1)[C@H]1C[C@H](CC(=O)N3CCCCC3)O[C@@H](CO)[C@H]1O2)Nc1ccccc1F
7	-1.2	0.6	3	-2	Cc1noc(C)c1NC(=O)N[C@@H]1CC[C@H](CC(=O)N2CCCCC2)O[C@@H]1CO
8	-3.4	-4.5	6	7	C[C@H]1CN([C@@H](C)CO)C(=O)c2cccc(NS(C)(=O)=O)c2O[C@H]1CN(C)S(=O)(=O)c1ccccc1
9	-3.5	-1.7	4	8	C[C@H]1CN([C@@H](C)CO)C(=O)c2cccc(NC(=O)C3CCCCC3)c2O[C@@H]1CN(C)C(=O)NC1CCCCC1
10	2.4	1.8	10	5	CN(C)CCN1CCN(C2CN(Cc3cn(Cc4ccc(C(F)(F)F)cc4)nn3)S(=O)(=O)C2)CC1 (configuration not stated)
11	4.9	-5.8	-5	-18	CCCOc1ccc(F)cc1-c1cc(C(=O)NCc2ccccc2OC)[nH]n1
12	-7.0	-0.4	-27	-61	Cn1c(=O)c2cc(NC(=O)NCCc3ccccc3)ccc2n1Cc1ccc(F)cc1
13	1.2	-16	3	-1	Cc1noc(C)c1S(=O)(=O)Nc1ccc2c(c1)C(=O)N([C@@H](C)CO)C[C@H](C)[C@H](CN(C)S(=O)(=O)c1ccc(Cl)cc1)O2
14	-1.4	-12	3	4	CC(C)NC(=O)N(C)C[C@@H]1Oc2ncc(C3=CCCCC3)cc2C(=O)N([C@H](C)CO)C[C@@H]1C
15	3.4	4.9	1	0	Cc1noc(C)c1S(=O)(=O)Nc1ccc2c(c1)CC(=O)N([C@@H](C)CO)C[C@H](C)[C@@H](CN(C)Cc1ccc(-c3ccccc3)cc1)O2
16	2.4	1.8	-2	-1	CO[C@@H]1CN(C)C(=O)c2cc(NC(C)=O)ccc2OC[C@H](C)N(CCC(F)(F)F)C[C@H]1C
17	-0.4	0.7	1	-7	COc1ccc(S(=O)(=O)Nc2cccc3c2O[C@H](CN(C)Cc2ccncc2)[C@H](C)CN([C@@H](C)CO)C3=O)cc1
18	-0.7	-2.7	2	9	COc1ccc(S(=O)(=O)N(C)C[C@H]2Oc3ncc(C#CC4(O)CCCC4)cc3C(=O)N([C@@H](C)CO)C[C@H]2C)cc1
19	-1.2	0.5	-1	-2	Cc1ccc(S(=O)(=O)N(C)C[C@H]2Oc3c(NC(=O)Nc4c(C)noc4C)cccc3C(=O)N([C@@H](C)CO)C[C@@H]2C)cc1
20	-3.5	-1.9	-1	-24	CCc1ccc(NC(=O)CSc2nc(C)cs2)cc1
21	-0.7	2.1	-3	-8	Cc1noc(C)c1NC(=O)Nc1cccc2c1O[C@H](CN(C)Cc1ccc(C(F)(F)F)cc1)[C@@H](C)CN([C@@H](C)CO)C2=O
22	-1.8	-1.4	-8	-15	C[C@H]1CN([C@@H](C)CO)S(=O)(=O)c2ccc(-c3ccc(C(=O)N(C)C)cc3)cc2O[C@H]1CN(C)C(=O)C1CCC1
23	-5.3	0.5	-1	12	C=CCSc1nnc(-c2cccc3ccccc23)o1
24	2.6&2.8	12&2.6	1&16	2&10	C[C@@H]1CN([C@@H](C)CO)C(=O)CCCn2nncc2CO[C@H]1CN(C)C(=O)Nc1ccc(N2CCN(C)CC2)cc1
25	2.6	0.5	0	-1	CN1[C@@H]2c3ccc(-c4cccc(F)c4)c(=O)n3C[C@@H]2[C@@H](CO)[C@@H]1C(=O)NC1CCC1
26	-14	2.5	-58	-77	Cc1cccc(S(=O)(=O)N2C[C@H]3[C@@H](c4ccccc42)[C@H](CO)N3CC2CCCC2)c1
27	-1.5	-1.1	-1	-4	CC(=O)N1[C@H](CO)[C@H](c2ccccc2)[C@@H]1CN(C(=O)c1cccc(F)c1)C(C)C
28	-1.7	1.9	-6	-4	CCC(=O)N1[C@@H]2c3ccc(C4=CCCC4)c(=O)n3C[C@H]1[C@H](CO)[C@H]2C(=O)NCC1CCCCC1
29	0.0	0.2	-5	3	CO[C@H]1CN(C)C(=O)c2cc(NC(=O)C3CCCCC3)ccc2OC[C@H](C)N(Cc2cccnc2)C[C@@H]1C
30	0.0	-2.7	0	3	C[C@@H]1CCCCO[C@@H](CN(C)Cc2ccc(Cl)c(Cl)c2)[C@@H](C)CN([C@@H](C)CO)C(=O)c2cc(NC(=O)Cc3ccccc3)ccc2O1
31	1.4	-2.2	3	0	Cc1noc(C)c1S(=O)(=O)N(C)C[C@@H]1OCCCC[C@@H](C)Oc2ccc(NS(=O)(=O)c3ccccc3)cc2C(=O)N([C@H](C)CO)C[C@@H]1C
32	-3.3	0.9	3	13	CC[C@H](C)[C@H]1CNC(=O)C(=O)N1CC1CCN(CCc2ccc(OC)c(OC)c2)CC1
33	5.5	3.2	-8	-8	O=C(Nc1ccc(Cl)c(Cl)c1)N[C@H]1CC[C@H](CCNC(=O)c2ccc(F)cc2)O[C@H]1CO
34	-2.0	-1.6	1	4	Cc1noc(C)c1NC(=O)N(C)C[C@@H]1OCc2ccccc2-c2ccccc2C(=O)N([C@H](C)CO)C[C@H]1C
35	-2.3	-2.0	-3	1	C[C@@H]1CN([C@@H](C)CO)C(=O)c2cccc(NS(=O)(=O)c3ccc(F)cc3)c2O[C@H]1CN(C)C(=O)Nc1ccc2c(c1)OCO2
36	0.8	7.0	2	-5	COc1cccc(-c2ccc([C@H]3[C@H](CO)N4CCCCN(CC5CC5)C[C@@H]34)cc2)c1
37	-1.4	-4.0	11	17	CC(C)(CO)CNc1ccn2nccc2n1
38	31	7.1	-6	-55	C[C@@H]1CCCCO[C@H](CN(C)Cc2ccc(Cl)c(Cl)c2)[C@H](C)CN([C@@H](C)CO)C(=O)c2cc(NS(C)(=O)=O)ccc2O1
39	0.4	0.1	-3	-4	COc1ccc(S(=O)(=O)N(C)C[C@H]2Oc3ccc(NC(=O)c4ccncc4)cc3CC(=O)N([C@H](C)CO)C[C@H]2C)cc1
40	1.0	-3.8	-1	-11	O=C(C[C@@H]1CC[C@H]2[C@@H](COC[C@@H](O)CN2Cc2ccncc2)O1)NCc1ccncc1

Three of the compounds above, with each value named:
35. C[C@@H]1CN([C@@H](C)CO)C(=O)c2cccc(NS(=O)(=O)c3ccc(F)cc3)c2O[C@H]1CN(C)C(=O)Nc1ccc2c(c1)OCO2
  rRNA inh HTS RFP: -2.3; AF4-AF9 inh: -2.0; rRNA inh HTS: -3; rRNA inh HTS OD600: 1
19. Cc1ccc(S(=O)(=O)N(C)C[C@H]2Oc3c(NC(=O)Nc4c(C)noc4C)cccc3C(=O)N([C@@H](C)CO)C[C@@H]2C)cc1
  rRNA inh HTS RFP: -1.2; AF4-AF9 inh: 0.5; rRNA inh HTS: -1; rRNA inh HTS OD600: -2
27. CC(=O)N1[C@H](CO)[C@H](c2ccccc2)[C@@H]1CN(C(=O)c1cccc(F)c1)C(C)C
  rRNA inh HTS RFP: -1.5; AF4-AF9 inh: -1.1; rRNA inh HTS: -1; rRNA inh HTS OD600: -4

(list continues)
#	rRNA inh HTS RFP	AF4-AF9 inh	rRNA inh HTS	rRNA inh HTS OD600	structure
41	0.2	-2.6	3	3	C[C@H]1CN([C@@H](C)CO)C(=O)c2cc(NC(=O)Cc3ccccc3)ccc2O[C@@H]1CN(C)C(=O)Nc1ccccc1
42	-1.8	-1.7	5	-2	CN(C)C(=O)c1cccc(-c2ccc([C@H]3[C@@H](CO)N4C(=O)CN(C(=O)C5CCC5)C[C@@H]34)cc2)c1
43	-2.2	-0.3	-1	-1	CC(C)c1cn(CC[C@H]2CC[C@@H](NC(=O)C3CC3)[C@H](CO)O2)nn1
44	-1.1	4.0	1	-4	C[C@H]1CN([C@@H](C)CO)C(=O)Cc2cc(NC(=O)Nc3ccc(C(F)(F)F)cc3)ccc2O[C@H]1CN(C)S(=O)(=O)c1cn(C)cn1
45	-1.0	4.1	-3	-12	Cc1ccccc1-c1ccc2c(c1)O[C@@H](CN(C)C(=O)Nc1ccc(F)cc1)[C@H](C)CN([C@@H](C)CO)S2(=O)=O
46	35	13	-6	-36	COc1ccc(CN(C)C[C@@H]2OCCCC[C@@H](C)Oc3ccc(NC(=O)Nc4ccc(F)cc4)cc3C(=O)N([C@@H](C)CO)C[C@H]2C)cc1
47	-5.6	-4.9	0	-8	Cc1ccccc1Cn1c(C)c(C(=O)NCc2ccc(Cl)c(Cl)c2)sc1=O
48	1.2	0.4	-1	-10	OC[C@H]1[C@@H](c2ccc(-c3cccc(F)c3)cc2)[C@@H]2CN(Cc3cncnc3)CCCCN12
49	2.9	3.2	17	7	O=C(C[C@H]1C[C@H](C(=O)N2CCOCC2)[C@@]2(CCC3CCCC3)c3[nH]c4ccc(Cl)cc4c3CCN2C1=O)NCCc1ccccn1
50	-3.1	-0.9	-11	-47	COCC(=O)N1[C@H](C#N)[C@H](c2ccc(C#Cc3ccccc3F)cc2)[C@H]1CO
51	-0.8	7.0	2	4	C[C@H](CO)N1C[C@H](C)[C@@H](CN(C)Cc2ccc3c(c2)OCO3)Oc2ccc(NC(=O)C3CCCCC3)cc2CC1=O
52	2.6	-2.7	2	9	COc1ccc(S(=O)(=O)N(C)C[C@@H]2OCCCC[C@H](C)Oc3ccc(NS(=O)(=O)c4ccc(C)cc4)cc3C(=O)N([C@H](C)CO)C[C@H]2C)cc1
53	1.8	-2.9	10	13	COc1ccc(CN2C[C@@H](CO)O[C@@H](n3cnc4c(N5CCOCC5)ncnc43)C2)cc1
54	-1.3	1.2	-12	-3	CNc1cccc(-c2c(OC)cccc2OC)n1
55	1.6	-0.2	-3	-4	CC1=C(C(=O)N(C(C)C)C(C)C)CC(CC(=O)NC2CCCCC2)C(=O)N1Cc1ccccc1 (configuration not stated)
56	5.3	9.2	-8	-19	COCC(=O)Nc1ccc2c(c1)C(=O)N(C)C[C@H](OC)[C@@H](C)CN(CC1CCCCC1)[C@H](C)CO2

Ordered by formula weight (low to high): three of the compounds above
#	rRNA inh HTS RFP	AF4-AF9 inh	rRNA inh HTS	rRNA inh HTS OD600	structure
54	-1.3	1.2	-12	-3	CNc1cccc(-c2c(OC)cccc2OC)n1
47	-5.6	-4.9	0	-8	Cc1ccccc1Cn1c(C)c(C(=O)NCc2ccc(Cl)c(Cl)c2)sc1=O
52	2.6	-2.7	2	9	COc1ccc(S(=O)(=O)N(C)C[C@@H]2OCCCC[C@H](C)Oc3ccc(NS(=O)(=O)c4ccc(C)cc4)cc3C(=O)N([C@H](C)CO)C[C@H]2C)cc1

Screening data from PubChem.

Only part of the results is shown, so the mix of outcomes need not match the whole.
